Source: PubChem
MgrA DNA FP: alters Staphylococcus aureus MgrA binding to DNA; fluorescence polarization; inhibition, %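 (about 10 µg/mL by stock and volumes)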; hit rate 0.13% among 84,000;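 active = above 50% in either of two replicates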;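 also: 0% = protein plus DNA without compound and 100% = DNA alone without protein; higher means less MgrA bound to DNA so lower polarization; one replicate is shown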
S aureus helic: blocks Staphylococcus aureus DNA helicase; purified S. aureus helicase, fluorescence unwinding assay; about half of the hits fall short of the stated cut; inhibition, %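 (tested at about 80 µM)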; hit rate 0.05% among 120,000; AID 485395;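 active = both duplicates at 50% or more, or one of them with a favoured structure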;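 also: 0% = mean of negative control wells and 100% = mean of positive control wells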
An asterisk follows results filed as active; · = not tested or not shown. Some of the compounds tested. The share of hits here may be higher or lower than overall.

Preview (7 entries):
molecule	MgrA DNA FP	S aureus helic
COC(=O)Cn1c(=O)c(C)nc2ccccc21	0.2	-7
CN1C/C(=C/c2ccc3c(c2)OCCO3)C(=O)/C(=C/c2ccc3c(c2)OCCO3)C1	·	8
CCC(C)NC(=O)c1ccc2cn[nH]c2c1 (configuration not stated)	·	16
CCN1CCN(C(=O)c2cc(-c3ccccc3O)no2)CC1	·	28
COc1cc(-c2c(C#N)c(SCC#N)nc(N)c2C(=O)OC(C)C)cc(OC)c1OC	-0.6	2
CC(C)(C)NC(=O)NCC1CCCC1NC(=O)NC(C)(C)C (configuration not stated)	·	-10
CNC(=S)Nc1cccc(C(F)(F)F)c1	-1.2	11

Results, previewed entries included:
molecule	MgrA DNA FP	S aureus helic
COC(=O)Cn1c(=O)c(C)nc2ccccc21	0.2	-7
CN1C/C(=C/c2ccc3c(c2)OCCO3)C(=O)/C(=C/c2ccc3c(c2)OCCO3)C1	·	8
CCC(C)NC(=O)c1ccc2cn[nH]c2c1 (configuration not stated)	·	16
CCN1CCN(C(=O)c2cc(-c3ccccc3O)no2)CC1	·	28
COc1cc(-c2c(C#N)c(SCC#N)nc(N)c2C(=O)OC(C)C)cc(OC)c1OC	-0.6	2
CC(C)(C)NC(=O)NCC1CCCC1NC(=O)NC(C)(C)C (configuration not stated)	·	-10
CNC(=S)Nc1cccc(C(F)(F)F)c1	-1.2	11
FC(F)Oc1ccc(/C=N/N2CCOCC2)c(OC(F)F)c1	·	13
CCOC(=O)c1c(C)oc2ccc(OCC(=O)C(C)(C)C)cc12	·	39
Cc1ncc(S(=O)(=O)Cc2cccs2)c(N)n1	-1.6	·
Cc1cc(C(=O)OCC(=O)NCc2ccccc2)c(C)o1	-0.1	-3
COc1ccc2[nH]c(=O)c(C(c3nnnn3Cc3ccccc3)N(C)C3CCCCC3)cc2c1 (configuration not stated)	-1.5	3
COc1cccc(N2CCN(Cc3ccsc3)CC2)c1	-3.0	-1
S=C1NC(=S)NC(c2ccc3c(c2)OCO3)N1	2.5	4
COc1cccc(NC(=O)COc2ccccc2OC)c1	-3.7	-9
CN(Cc1ccccc1)C(=O)COc1ccccc1	-1.0	0
C=CCn1c(C)cc(C(=O)Cn2c(C)nc3cc4c(cc32)OCCO4)c1C	·	-3
CC(=O)Nc1ccc(C(=O)OC2CCCCC2)cc1	0.4	4
Cc1cccc(N2C(=O)CS/C2=N/NC(=O)c2cccc(Cl)c2)c1	1.9	0
COc1ccc(OCCN2CCN(S(=O)(=O)c3ccc(Cl)s3)CC2)cc1	·	2
CCc1cc2c(=O)c(Oc3ccccc3F)c(C(F)(F)F)oc2c(CN(C)C)c1O	·	7
Cn1cc(S(=O)(=O)c2ccc(Cl)cc2)c(=O)c2cc(F)ccc21	11	7
CC1=Nc2cc(C(=O)O)ccc2Sc2ccc(Br)cc21	4.6	4
NC(=O)C1CCN(C(c2ccccc2)c2sc3ncnn3c2O)CC1 (configuration not stated)	·	6
CSc1nnc(C)n1Cc1ccccc1	·	1
O=[N+]([O-])c1cc(C(F)(F)F)cc([N+](=O)[O-])c1NCCc1ccc(Cl)cc1	3.6	·
COc1ccccc1-c1c(C(F)(F)F)oc2c(CN3CCN(C)CC3)c(O)ccc2c1=O	-1.3	·
O=C(COc1cccc2cccnc12)c1ccccc1	·	-10
CC(C)(Oc1ccc(C(C)(C)C)cc1)C(=O)O	-1.9	·
COc1ccc(NCCC(=O)O)cc1	-0.4	-12

Full records, looked up by structure:
COc1ccccc1-c1c(C(F)(F)F)oc2c(CN3CCN(C)CC3)c(O)ccc2c1=O as listed: MgrA DNA FP: -1.3; S aureus helic: ·
O=C(COc1cccc2cccnc12)c1ccccc1 as listed: MgrA DNA FP: ·; S aureus helic: -10

Next records follow.
molecule	MgrA DNA FP	S aureus helic
Cc1ccc(NC(=S)N2CCCC(c3ccccc3)=N2)cc1	-0.5	·
CC(NC(=O)CS(=O)(=O)c1ccccc1)c1ccccc1 (configuration not stated)	2.5	5
COc1ccc(CCN2C(=S)N(c3cccc(C(F)(F)F)c3)C(=O)C2CC(N)=O)cc1OC (configuration not stated)	0.7	-3
O=C1CC(SCCc2nc3ccccc3[nH]2)C(=O)N1c1ccc(F)cc1 (configuration not stated)	-3.3	15
CC12CCC(C(=O)N3CCSCC3)(OC1=O)C2(C)C (configuration not stated)	-1.6	·
O=c1[nH]c(SCc2ccccc2)nc(O)c1Cc1ccccc1	-0.3	16
CCOC(=O)c1cc(C)nc(SC)c1C#N	2.1	·
O=C(c1cc2ccccc2o1)N(C1CC1)C1CCS(=O)(=O)C1 (configuration not stated)	·	-5
O=C(CN1CCc2ccccc21)Nc1cccc(C(F)(F)F)c1	·	-9
Cc1oc(-c2ccccc2)nc1CS(=O)CC(=O)O (configuration not stated)	·	4
COc1ccc(C(=O)Nc2nonc2NC(=O)c2ccc(OC)cc2)cc1	-3.5	11
COc1c(C(=O)O)csc1Br	-1.1	·
O=C(N/N=C/c1c(Cl)nc2ccccn12)c1ccncc1	·	11
O=c1c2cc(NC(=S)Nc3cccc(C(F)(F)F)c3)ccc2nc2n1CCCCC2	-1.1	1
NC(=O)Cn1c(=O)c2ccccc2n(CC(N)=O)c1=O	1.6	0
CCOC(=O)CSc1nc2cc(C(=O)OC)ccc2c(=O)n1CCc1ccc(S(N)(=O)=O)cc1	·	9
CC1CCN(c2nn3c(N)c(/C=C4\C=Nc5ccccc54)c(=O)nc3s2)CC1	-2.2	-2
O=C(COC(=O)c1ccccc1F)c1ccc(-n2nncc2-c2ccc(F)cc2)cc1	·	5
O=C1C=C(c2ccccc2)C(=O)c2ccccc21	11	·
Cc1ccc(S(=O)(=O)NC(=O)NC2CCCc3ccccc32)cc1 (configuration not stated)	0.2	·
O=C(O)c1ccccc1Nc1ccnc(N2CCCCC2)n1	·	18
CC1CC(C)CN(C(=O)COC(=O)/C=C/c2cccc(F)c2)C1 (configuration not stated)	·	9
N#CC(=C1SCCCCS1)S(=O)(=O)c1ccc(Cl)cc1	-0.9	·
CCN(c1cccc(C)c1)S(=O)(=O)c1ccc2c(c1)C(=C(C)C)C(=O)N2	·	-19
CC(NC(=O)COc1ncnc2ccccc12)C1CC2CCC1C2 (configuration not stated)	-1.5	-20
CCOC(=O)c1cccc(N(C(=O)Cn2nnc3ccccc32)C(C(=O)NCC2CCCO2)c2nc3ccccc3n2C)c1 (configuration not stated)	-1.1	2
CC(=O)N(C)c1ccc(NC(=O)c2sc3ccccc3c2Cl)cc1	3.0	29
CC1(C)Cc2nc3sc4c(=O)n(CC(=O)NCc5ccco5)cnc4c3cc2CO1	-1.8	-6
CN(C)CCNc1nc(S(=O)(=O)c2ccccc2)c(Cl)s1	·	3
Cc1ccc(S(=O)(=O)NC2=NCCC2)cc1	0.0	1

Additional records follow.
molecule	MgrA DNA FP	S aureus helic
CC(C)=CCOc1ccc2c3c(c(=O)oc2c1)CCC3	·	29
O=C(NCCNc1ccc(C(F)(F)F)cn1)Nc1ccccc1Cl	·	-13
CCCc1cc(=O)[nH]c(/N=C(\N)Nc2cccc(C(F)(F)F)c2)n1	0.9	·
CC(C)NC(=O)CCCc1nc(-c2ccccc2)no1	-0.8	4
COC(=O)c1cc(-c2cocc2C=C(C#N)C#N)ccc1Cl	25	-57
Cc1[nH]n(-c2nc3ccccc3s2)c(=O)c1C1OC(=O)c2ccccc21 (configuration not stated)	11	22
S=C(NCCN1CCOCC1)NN(Cc1ccccc1)c1ccccc1	·	4
CC1CCCCN1C(=O)CSc1nc2cc3c(cc2c(=O)n1Cc1ccc2c(c1)OCO2)OCO3 (configuration not stated)	·	4
CCCCCC#CCC#CCC#CCC#CCCCC(=O)O	-0.9	·
COc1nc(NCCN2CCOCC2)nc(Nc2ccc(I)cc2)n1	·	1
Cn1c(Sc2ccc(C(F)(F)F)cc2[N+](=O)[O-])nnc1C(F)(F)F	2.4	·
Clc1ccc(-c2nn[nH]n2)cc1	-0.7	·
c1cnc2nc(CSc3ncn[nH]3)cn2c1	·	4
N#CC1=C(SCC(N)=O)NC(=O)CC1c1ccccc1 (configuration not stated)	·	3
Clc1ccc(-c2nc(-c3ccccn3)no2)c(Cl)c1	-2.1	·
COc1cc(/C=C2\Sc3ccccc3C2=O)cc([N+](=O)[O-])c1O	3.8	·
O=c1cc(Nc2ccc(N3CCCCC3)cc2)[nH]c(=O)[nH]1	-1.2	14
CN1C(=O)c2ccc(C(=O)NC3CCCCC3)cc2C1=O	4.8	20
COc1cccc(C(=O)NC(=S)Nn2cnnc2)c1OC	·	-12
CC(C)(C)N1CC(O)C1	-0.3	8
O=C(Cn1nnc(-c2ccccc2)n1)OCC(=O)c1ccccc1	·	-12
CCN(C(=O)COc1ncnc2ccccc12)c1ccccc1	-1.1	2
CC1=NNC(=O)C1CC(=O)N/N=C/c1ccncc1 (configuration not stated)	·	40
CCOC(=O)c1c(NC(=O)CCN2C(=O)c3cccc([N+](=O)[O-])c3C2=O)sc2c1CCC2	-3.6	·
O=C(CSc1nc2ccccc2o1)Nc1ccc(S(=O)(=O)NC2CCCC2)cc1	-0.9	5
NCc1cnc2c(c1)CCC2	·	2
O=C(CSC1=NCCS1)Nc1cc(C(F)(F)F)ccc1Cl	·	1
COc1ccc(-c2csc(-c3c(C)noc3N)n2)cc1	-1.2	·
CC1=CC(C)(C)c2ccccc2N1Cc1ccccc1	-1.4	16
CCCCn1c(CCNC(=O)c2ccccc2)nc2ccccc21	·	-12

More records follow:
molecule	MgrA DNA FP	S aureus helic
COC(=O)c1c[nH]n2c(=O)cc(CCl)nc12	·	1
O=C(Oc1ccccc1)Oc1ccc2sc(=O)oc2c1	·	7
Cc1nc(Nc2nc(=O)c3ccccc3n2C)nc2c(C)cccc12	·	-4
NS(=O)(=O)c1ccc(CCNC(=O)c2cccn3c(=O)c4cc5ccccc5cc4nc23)cc1	1.9	-32
CS(=O)(=O)c1ccc(C(=O)OCc2cn3cc(Cl)ccc3n2)cc1	·	9
Cc1[nH]c2ccccc2c1/C=N/n1cnc2sc3c(c2c1=O)CCCC3	0.9	7
Cc1ccc2c(c1)N(C(=O)CCC(=O)NCc1ccco1)CCO2	·	20
CCc1nc(=O)c(-c2ccccc2)c(C)n1-c1ccccc1	-1.2	-17
Cc1ccc(S(=O)(=O)N2C(=O)CCC2C(=O)NCc2nc(-c3ccccc3)no2)cc1 (configuration not stated)	0.8	-2
CCC1CCCCN1C(=O)CCn1ccnc1 (configuration not stated)	·	2
COC(=O)c1cccc(OC(N)=O)c1	0.4	·
O=C(NC1CCCCC1)/C(=C\c1ccco1)NC(=O)c1ccccc1	·	22
COc1ccc(N2C(=O)CSC23C(=O)N2CCCc4cccc3c42)cc1 (configuration not stated)	-1.4	10
CCOC(=O)c1c(NC(=O)CCN2CCC(C)CC2)sc2c1CCC2	·	8
COc1cc(S(=O)(=O)N2CCCCC2C)c(OC)cc1Cl (configuration not stated)	3.9	-5
CCCn1c(=N)c(C(=O)NC)cc2c(=O)n3cc(C)ccc3nc21	2.6	3
COC(=S)Nc1cccc(C(F)(F)F)c1	1.5	·
Cc1cc(OC(C)C(=O)Nc2sc3c(c2C(N)=O)CCCCCC3)ccc1Cl (configuration not stated)	6.5	7
CC(=O)N/N=C/c1ccc(-c2cccc(C(=O)O)c2)o1	0.6	5
O=C1CCCCC1C(=O)c1cccc(C(F)(F)F)c1 (configuration not stated)	-1.1	-16
O=C(Cn1cnc2c(cnn2-c2ccccc2)c1=O)N1CCc2ccccc21	·	-17
COC(=O)c1csc2c(C(F)(F)F)cc(N3CCN(C(=O)Nc4ccc(F)cc4)CC3)nc12	-2.0	·
CSc1nc(NCc2ccccc2)c(C#N)c(-c2ccccc2)n1	·	-21
Nc1nnc(SCC(=O)N2c3ccccc3Sc3ccccc32)s1	·	-20
c1ccc2[nH]c(CSCCC3CCCCC3)nc2c1	-0.9	10
COc1ccc2[nH]cc(NC(=O)N3CCN(C)CC3)c(=O)c2c1	-3.1	6
CC(NC(=O)C1CCCN(S(=O)(=O)c2ccc3c(c2)CC(C)N3C(=O)C2CC2)C1)c1ccccc1 (configuration not stated)	·	-16
CCOC(=O)c1c(Nc2nc3ccccc3nc2N2CCN(C)CC2)sc2c1CCCC2	·	-19
CC(C)(C)C(=O)NCC(=O)NC1=NCCS1	·	14
CSc1nc2nc(C)c(Cc3cccc(F)c3)c(C)n2n1	-3.1	·

(next part)
molecule	MgrA DNA FP	S aureus helic
CCOC(=O)c1sc2nccc(N(C)C)c2c1N=CN(C)C	1.9	4
CC(C)N(Cc1ccc(N(C)C)cc1)S(=O)(=O)c1cccc(C(F)(F)F)c1	-1.2	·
Cc1ccccc1C(OCC(O)CN1CCC(C(N)=O)CC1)c1ccccc1 (configuration not stated)	·	-6
O=C(CSc1nc2c(c(=O)n1-c1ccccc1)SCC2)N1CCCc2ccccc21	-0.5	7
O=C(CCCc1nc2ccccc2s1)NC1=NCCS1	·	-6
Cc1noc(C)c1C(=O)Nc1ccc2c(c1)C(=O)OC2	-1.1	·
NS(=O)(=O)c1ccc(-n2ncc3ccccc3c2=O)cc1	3.1	·
O=S(=O)(NCc1csc(-c2cccs2)n1)c1ccc2c(c1)OCCCO2	·	8
CCN(Cc1ccccc1)c1ccc(/C=N/O)cc1	·	-6
CN(C)c1ccc(C(=O)NCCc2ccccc2)cc1	·	8
CSc1scc(NC(=O)c2ccc(C)cc2)c1S(=O)(=O)C(C)C	-3.2	·

Quoted from the listing:
For S aureus helic, O=C(CSc1nc2c(c(=O)n1-c1ccccc1)SCC2)N1CCCc2ccccc21 has 7
For MgrA DNA FP, CSc1scc(NC(=O)c2ccc(C)cc2)c1S(=O)(=O)C(C)C has -3.2
